Vaccinia stage – blocks a specific stage of Vaccinia orthopoxvirus infection; Vaccinia-infected cells, mCherry/Venus stage reporter fluorescence; stronger effect = lower value; some inactives read as strong as hits; activity change (mCherry), % (test concentration not listed); 89,000 compounds, 0.01% hits; AID 1053133;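 active = mCherry past -33% and 40 or more points under the early reporter, replicates agreeing; inconclusive = past -33% without that gap or agreement; tested in A549 cells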;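 also: scaled between vehicle wells and reference inhibitor wells; 23 nL library stock went into each well; one replicate is shown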
Vaccinia stage Venus – further read-out of Vaccinia stage, marked with its call; activity change (Venus), %; measured here: Venus reporter, other viral stage;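 negative = less Venus signal; first of two replicates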
Numbers without * were called inactive.

How did O=C(Nc1ccc(F)cc1)N1CCCCN2[C@@H](CO)[C@@H](c3ccc(-c4ccncc4)cc3)[C@@H]2C1 do in these assays?
Vaccinia stage: -34; Vaccinia stage Venus: -31

How did O=C(NC[C@@H]1N[C@@H](CO)[C@H]1c1ccc(-c2cccnc2)cc1)c1cccc(F)c1 do in these assays?
Vaccinia stage: -3; Vaccinia stage Venus: 2

Results for C[C@H]1CN([C@@H](C)CO)C(=O)c2cccc(NS(=O)(=O)c3ccccc3)c2O[C@H]1CN(C)Cc1ccc(C(F)(F)F)cc1 ?
Vaccinia stage: -21; Vaccinia stage Venus: -15

Results for CCN(C[C@@H]1[C@@H](c2ccccc2)[C@H](CO)N1C(C)=O)C(=O)c1cccc(F)c1 ?
Vaccinia stage: 14; Vaccinia stage Venus: 6

Results for CCCC#Cc1cnc2c(c1)C(=O)N([C@H](C)CO)C[C@H](C)[C@H](CN(C)Cc1cccnc1)O2 ?
Vaccinia stage: 13; Vaccinia stage Venus: 13

How did CC(C)C#Cc1cnc2c(c1)C(=O)N([C@H](C)CO)C[C@H](C)[C@@H](CN(C)C(=O)c1cccnc1)O2 do in these assays?
Vaccinia stage: 18; Vaccinia stage Venus: 10

How did C[C@H](CO)N1C[C@H](C)[C@H](CN(C)S(C)(=O)=O)Oc2ncc(C#Cc3ccc(C(F)(F)F)cc3)cc2C1=O do in these assays?
Vaccinia stage: inconclusive

What do the screens show for `COc1ccc(NC(=O)N[C@H]2CC[C@@H](CCNC(=O)CN3CCOCC3)O[C@H]2CO)cc1`?
Vaccinia stage: 11; Vaccinia stage Venus: 15

What do the screens show for `C[C@@H]1CN([C@H](C)CO)C(=O)c2cc(NC(=O)C3CC3)ccc2O[C@H]1CN(C)Cc1ccc(Cl)c(Cl)c1`?
Vaccinia stage: inconclusive

What do the screens show for `C[C@H](CO)N1C[C@H](C)[C@H](CN(C)S(=O)(=O)c2ccccc2)Oc2c(NC(=O)c3ccncc3)cccc2C1=O`?
Vaccinia stage: 10; Vaccinia stage Venus: 3

What do the screens show for `Cc1ccc(S(=O)(=O)N(C)C[C@H]2OCCCC[C@H](C)Oc3ccc(NS(=O)(=O)c4c(C)noc4C)cc3C(=O)N([C@@H](C)CO)C[C@H]2C)cc1`?
Vaccinia stage: inconclusive

What do the screens show for `COc1ccc(NC(=O)Nc2ccc3c(c2)C(=O)N([C@@H](C)CO)C[C@@H](C)[C@H](CN(C)S(=O)(=O)c2cn(C)cn2)O3)cc1`?
Vaccinia stage: 23; Vaccinia stage Venus: 12

How did CO[C@@H]1CN(C)C(=O)c2ccc(NS(=O)(=O)c3ccc(-c4ccccc4)cc3)cc2OC[C@@H](C)NC[C@@H]1C do in these assays?
Vaccinia stage: 14; Vaccinia stage Venus: 10

How did COc1cccc(CN(C)C[C@H]2OCc3cn(nn3)CCCC(=O)N([C@@H](C)CO)C[C@@H]2C)c1 do in these assays?
Vaccinia stage: 21; Vaccinia stage Venus: 23

Results for COc1ccc(S(=O)(=O)N(C)C[C@H]2Oc3ccc(NC(=O)c4ccncc4)cc3C(=O)N([C@H](C)CO)C[C@H]2C)cc1 ?
Vaccinia stage: -4; Vaccinia stage Venus: 1

Reprinted from the part before: four entries; new compounds follow.
What do the screens show for `COc1ccc(NC(=O)Nc2ccc3c(c2)C(=O)N([C@@H](C)CO)C[C@@H](C)[C@H](CN(C)S(=O)(=O)c2cn(C)cn2)O3)cc1`?
Vaccinia stage: 23; Vaccinia stage Venus: 12

How did CO[C@@H]1CN(C)C(=O)c2ccc(NS(=O)(=O)c3ccc(-c4ccccc4)cc3)cc2OC[C@@H](C)NC[C@@H]1C do in these assays?
Vaccinia stage: 14; Vaccinia stage Venus: 10

How did COc1cccc(CN(C)C[C@H]2OCc3cn(nn3)CCCC(=O)N([C@@H](C)CO)C[C@@H]2C)c1 do in these assays?
Vaccinia stage: 21; Vaccinia stage Venus: 23

Results for COc1ccc(S(=O)(=O)N(C)C[C@H]2Oc3ccc(NC(=O)c4ccncc4)cc3C(=O)N([C@H](C)CO)C[C@H]2C)cc1 ?
Vaccinia stage: -4; Vaccinia stage Venus: 1

How did COc1ccc2c3c(n(C)c2c1)[C@H](CO)N(S(C)(=O)=O)CC31CCN(CC2CCCCC2)CC1 do in these assays?
Vaccinia stage: -12; Vaccinia stage Venus: -9

Results for CC=Cc1ccc2n(c1=O)C[C@@H]1[C@@H](CO)[C@H](C(=O)NCCC)[C@H]2N1Cc1cccnc1 (mixture of isomers) ?
Vaccinia stage: 4; Vaccinia stage Venus: 10

Results for COc1ccccc1NC(=O)N1CCCCN2[C@H](C1)[C@@H](c1ccc(C#Cc3ccccc3)cc1)[C@@H]2CO ?
Vaccinia stage: -24; Vaccinia stage Venus: -25

Results for O=S(=O)(N[C@@H]1CC[C@@H](CCn2cc(-c3ccccn3)nn2)O[C@H]1CO)c1cccc(Cl)c1 ?
Vaccinia stage: -12; Vaccinia stage Venus: -12

What do the screens show for `C[C@@H](NC(=O)C[C@H]1CC[C@@H]2[C@H](COC[C@@H](O)CN2C)O1)c1ccccc1`?
Vaccinia stage: 17; Vaccinia stage Venus: 14

Results for C[C@H](CO)N1C[C@H](C)[C@@H](CN(C)Cc2ccccc2)OCCCC[C@H](C)Oc2ccc(NC(=O)CCCN(C)C)cc2C1=O ?
Vaccinia stage: -9; Vaccinia stage Venus: 4

How did C[C@@H]1CN([C@@H](C)CO)C(=O)Cc2cc(NC(=O)Nc3ccc4c(c3)OCO4)ccc2O[C@@H]1CN(C)Cc1ccc(Oc2ccccc2)cc1 do in these assays?
Vaccinia stage: inconclusive

Results for O=C(NC[C@@H]1CC[C@@H]2[C@@H](CN2C(=O)C2CCOCC2)O1)Nc1ccccc1Cl ?
Vaccinia stage: 13; Vaccinia stage Venus: 11

How did Cc1noc(C)c1NC(=O)Nc1ccc2c(c1)C(=O)N([C@H](C)CO)C[C@H](C)[C@H](CN(C)S(=O)(=O)c1ccc(Cl)cc1)OCCCC[C@H](C)O2 do in these assays?
Vaccinia stage: -7; Vaccinia stage Venus: -8

Results for CC(C)NC(=O)N1[C@H](CO)[C@H](c2ccccc2)C12CN(C(=O)c1ccccn1)C2 ?
Vaccinia stage: 14; Vaccinia stage Venus: 3

Results for Cc1ccccc1-c1ccccc1[C@@H]1[C@H](C#N)N(C(=O)c2ccccc2)[C@H]1CO ?
Vaccinia stage: 6; Vaccinia stage Venus: -4

How did C[C@@H](O)C#Cc1ccc([C@H]2[C@H]3CN(C(=O)c4cccc(F)c4)CCCCN3[C@H]2CO)cc1 do in these assays?
Vaccinia stage: 21; Vaccinia stage Venus: 14

Results for COc1ccc(C#Cc2ccc([C@H]3[C@H]4CN(C(=O)c5ccncc5)CCCCN4[C@H]3CO)cc2)cc1 ?
Vaccinia stage: inconclusive

What do the screens show for `N#C[C@@H]1[C@@H](c2ccc(C#Cc3cccc(F)c3)cc2)[C@@H](CO)N1C(=O)C1CC1`?
Vaccinia stage: -13; Vaccinia stage Venus: -4

How did COC(=O)[C@@H]1[C@@H](CO)[C@@H]2Cn3c(ccc(-c4cccc(C(=O)N(C)C)c4)c3=O)[C@@H]2N1C do in these assays?
Vaccinia stage: 1; Vaccinia stage Venus: 4

How did C[C@H](CO)N1C[C@H](C)[C@@H](CN(C)C)OCCCC[C@H](C)Oc2ccc(NS(=O)(=O)c3ccc(F)cc3)cc2C1=O do in these assays?
Vaccinia stage: 7; Vaccinia stage Venus: 9

How did CC(=O)N1CC2(C1)[C@@H](c1ccc(-c3cccc(F)c3)cc1)[C@@H](CO)N2CC1CCOCC1 do in these assays?
Vaccinia stage: -5; Vaccinia stage Venus: 4

How did O=C(C[C@H]1CC[C@H]2[C@@H](COC[C@@H](O)CN2Cc2cccc(F)c2)O1)NCc1cccc(F)c1 do in these assays?
Vaccinia stage: -15; Vaccinia stage Venus: -10

How did CCCC#Cc1ccc([C@@H]2[C@@H](CO)N3CCCCN(Cc4ccncc4)C[C@H]23)cc1 do in these assays?
Vaccinia stage: -13; Vaccinia stage Venus: 0

How did C[C@@H]1CN([C@@H](C)CO)C(=O)c2cc(NS(=O)(=O)c3ccc(F)cc3)ccc2O[C@@H](C)CCCCO[C@H]1CN(C)S(=O)(=O)c1cn(C)cn1 do in these assays?
Vaccinia stage: 17; Vaccinia stage Venus: 7

Results for COCC(=O)Nc1ccc2c(c1)[C@@H]1C[C@H](CC(=O)N(C)C)O[C@H](CO)[C@@H]1O2 ?
Vaccinia stage: -2; Vaccinia stage Venus: -3

What do the screens show for `NCC[C@@H]1CC[C@H](NC(=O)c2ccccc2F)[C@@H](CO)O1`?
Vaccinia stage: 8; Vaccinia stage Venus: 4

How did O=C(NCc1ccc(F)cc1)[C@@H]1[C@@H](CO)[C@@H]2Cn3c(cccc3=O)[C@H]1N2C(=O)C1CC1 do in these assays?
Vaccinia stage: 4; Vaccinia stage Venus: -1

How did C[C@H]1CN([C@@H](C)CO)C(=O)c2cccc(NC(=O)Nc3ccc(C(F)(F)F)cc3)c2O[C@H]1CN(C)Cc1ccc(Cl)c(Cl)c1 do in these assays?
Vaccinia stage: inconclusive

What do the screens show for `COCC(=O)Nc1ccc2c(c1)OC[C@@H](C)N(C(=O)c1ccccc1)C[C@@H](C)[C@@H](OC)CN(C)C2=O`?
Vaccinia stage: 5; Vaccinia stage Venus: 5

Results for C[C@@H]1CN([C@H](C)CO)C(=O)c2cc(C3=CCCC3)cnc2O[C@H]1CN(C)C(=O)C1CCC1 ?
Vaccinia stage: 6; Vaccinia stage Venus: 3

What do the screens show for `CCCC(=O)Nc1ccc2c(c1)C(=O)N(C)[C@@H]1CC[C@H](CC(=O)N3CCCCC3)O[C@H]1CO2`?
Vaccinia stage: 10; Vaccinia stage Venus: 2

Results for CS(=O)(=O)Nc1ccc2c(c1)[C@H]1C[C@H](CC(=O)NCC3CC3)O[C@@H](CO)[C@H]1O2 ?
Vaccinia stage: -2; Vaccinia stage Venus: -4

Results for O=C(c1ccccc1)N1Cc2ccccc2[C@@H]2OC(c3ccc(OCCCO)cc3)=N[C@]2(Cc2ccccc2)C1=O ?
Vaccinia stage: -32; Vaccinia stage Venus: -20

How did COc1ccc(CN(C)C[C@@H]2OCCCC[C@H](C)Oc3ccc(NC(=O)CCCN(C)C)cc3C(=O)N([C@H](C)CO)C[C@@H]2C)cc1 do in these assays?
Vaccinia stage: 7; Vaccinia stage Venus: 4

Random excerpt: two entries already listed, in no set order.
Results for O=C(c1ccccc1)N1Cc2ccccc2[C@@H]2OC(c3ccc(OCCCO)cc3)=N[C@]2(Cc2ccccc2)C1=O ?
Vaccinia stage: -32; Vaccinia stage Venus: -20

Results for CS(=O)(=O)Nc1ccc2c(c1)[C@H]1C[C@H](CC(=O)NCC3CC3)O[C@@H](CO)[C@H]1O2 ?
Vaccinia stage: -2; Vaccinia stage Venus: -4

Additional results
Results for CO[C@@H]1CN(C)C(=O)c2ccc(NS(=O)(=O)c3cn(C)cn3)cc2OC[C@H](C)N(CC2CC2)C[C@@H]1C ?
Vaccinia stage: 0; Vaccinia stage Venus: -5

Results for C[C@@H]1CN([C@@H](C)CO)C(=O)Cc2cc(NC(=O)Nc3ccccc3)ccc2O[C@@H]1CN(C)Cc1ccc(C(=O)Nc2ccccc2N)cc1 ?
Vaccinia stage: -5; Vaccinia stage Venus: -3

How did CC=Cc1ccc2n(c1=O)C[C@@H]1[C@@H](CO)[C@H](C(=O)NCCC)[C@H]2N1Cc1ccccc1OC (mixture of isomers) do in these assays?
Vaccinia stage: 11; Vaccinia stage Venus: 4

How did O=C([C@H]1[C@H](CO)[C@H]2Cn3c(cccc3=O)[C@@H]1N2Cc1ccccc1)N1CCCCC1 do in these assays?
Vaccinia stage: 19; Vaccinia stage Venus: 8

What do the screens show for `C[C@@H]1CCCCO[C@H](CN(C)Cc2ccc(C(F)(F)F)cc2)[C@@H](C)CN([C@H](C)CO)C(=O)c2cc(NS(=O)(=O)c3ccc(F)cc3)ccc2O1`?
Vaccinia stage: inconclusive

Results for CCCC(O)C#Cc1cnc2c(c1)C(=O)N([C@H](C)CO)C[C@H](C)[C@H](CN(C)S(=O)(=O)c1cn(C)cn1)O2 (stereo partly drawn) ?
Vaccinia stage: 17; Vaccinia stage Venus: 11

Results for C[C@@H]1CN([C@@H](C)CO)C(=O)c2ccccc2-c2ccccc2CO[C@H]1CN(C)C(=O)[C@H](C)c1ccccc1 ?
Vaccinia stage: 8; Vaccinia stage Venus: 5

Results for O=C1CCCn2cc(nn2)COC[C@@H](c2ccccc2)N1 ?
Vaccinia stage: 18; Vaccinia stage Venus: 9

What do the screens show for `COc1ccc(NC(=O)N(C)C[C@H]2Oc3cc(Br)ccc3S(=O)(=O)N([C@H](C)CO)C[C@@H]2C)cc1`?
Vaccinia stage: 16; Vaccinia stage Venus: 6

Results for C[C@H](CO)N1C[C@H](C)[C@H](CN(C)C(=O)c2cnccn2)Oc2ncc(C#CCC3CCCC3)cc2C1=O ?
Vaccinia stage: -8; Vaccinia stage Venus: -6

What do the screens show for `O=C(C[C@H]1CC[C@H]2[C@@H](COC[C@H](O)CN2Cc2ccccc2)O1)N[C@H]1CCN(Cc2ccccc2)C1`?
Vaccinia stage: -11; Vaccinia stage Venus: -2

Results for Cc1noc(C)c1S(=O)(=O)Nc1ccc2c(c1)CC(=O)N([C@H](C)CO)C[C@H](C)[C@H](CN(C)Cc1ccc(Cl)c(Cl)c1)O2 ?
Vaccinia stage: -14; Vaccinia stage Venus: -16

Not all compounds are listed, so the mix of outcomes need not match the whole.
